Assay outcomes from PubChem BioAssay.
Ecoli growth: E. coli growth inhibition; 0.21% of 330,000 active; OD600 absorbance (no concentration beside the values); Escherichia coli growth, OD600, 23 h; stronger effect = lower value;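 active = OD600 absorbance below the run mean of sample wells minus 3.6 SD, in any replicate, cut at about 0.56 in these data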;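 note: stock transfer was 300 nL into about 60 µL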
AF4-AF9 inh: blocks AF4 peptide binding to human AF9 | P42568 | AlphaScreen, biotin-AF4 peptide binding to FLAG-AF9 | inhibition, % at 10 µM | 0.47% of 350,000 active;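 active = every replicate reaching a set inhibition limit, whatever the replicate mean, cut at about 25% in these data; inconclusive = mean inhibition reaches that limit but some replicates miss it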;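 note: 0% = plate neutral control median and 100% = total signal loss; the record names both 10 and 1 µM as test concentration; the first replicate is given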
Target sequence (P42568 whole entry, looked up): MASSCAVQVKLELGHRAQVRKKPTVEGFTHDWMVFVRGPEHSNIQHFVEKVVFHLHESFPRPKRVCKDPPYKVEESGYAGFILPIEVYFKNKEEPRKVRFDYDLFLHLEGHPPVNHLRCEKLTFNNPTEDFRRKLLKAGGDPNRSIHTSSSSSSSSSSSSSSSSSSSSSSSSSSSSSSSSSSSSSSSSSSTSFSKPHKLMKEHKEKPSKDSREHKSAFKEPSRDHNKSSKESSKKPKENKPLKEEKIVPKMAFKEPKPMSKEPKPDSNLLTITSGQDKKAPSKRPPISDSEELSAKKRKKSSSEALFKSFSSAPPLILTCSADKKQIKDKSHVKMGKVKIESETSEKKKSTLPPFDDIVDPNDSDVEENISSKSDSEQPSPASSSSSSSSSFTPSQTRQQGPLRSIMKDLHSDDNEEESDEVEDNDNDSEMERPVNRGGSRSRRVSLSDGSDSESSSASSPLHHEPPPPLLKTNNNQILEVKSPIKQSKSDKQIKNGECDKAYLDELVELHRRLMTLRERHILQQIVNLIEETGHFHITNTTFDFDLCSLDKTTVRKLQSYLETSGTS
ALR H2O2 inh: blocks human ALR sulfhydryl oxidase activity; purified ALR, DTT oxidation, H2O2 HRP-luminol luminescence; inhibition, % (no concentration beside the values); 3.8% of 290,000 active;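 active = mean and each replicate at 75% or more; inconclusive = only one of the two met; inactive = neither met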;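 note: stock transfer was 7.5 nL into about 7.5 µL; 0% = neutral wells and 100% = wells with inactivated enzyme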
Vif A3G: HIV-1 Vif–A3G interaction blockers – biochemical, TR-FRET, GST-Vif 1-94, biotin-A3G peptide, dose response retest, primary screen (AID 1117319); TR-FRET GST-Vif / biotin-A3G peptide binding; higher % means a stronger effect; test concentration not given here; strong numbers were not always called active; one-dose inhibition, %; IC50 in µM for titrated hits; 0.57% of 260,000 active;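 active = above the screen mean plus three standard deviations and confirmed in dose response; inconclusive = results disagree or hit not tested in dose response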;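 note: Vif residues 1-94 fused to GST binding biotinylated APOBEC3G peptide 110-148; 0% = full assay without inhibitor and 100% = GST in place of GST-Vif; retest series ran down from 100 µM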
FGF22 binding: shifts melting point of recombinant human FGF22; calls only at 9.99 µM; AID 651658; recombinant FGF22 thermal shift, SYPRO orange fluorescence; percent of sucrose octasulfate shift, DMSO zero; 1.5% of 340,000 active;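 active = melting point raised past a set limit in the mean and every replicate; inconclusive = no clear call; three in four hits are not shown here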
Ecoli rRNA inh: selective bacterial rRNA inhibition in E. coli; E. coli WT GFP vs humanized-ribosome RFP mutants, fluorescence, 24 h; stronger effect = lower value; DMSO median 0, no signal -100; GFP signal change (wild-type ribosome), % (test concentration not listed); 1.6% of 350,000 active;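 active = significant combined selectivity score with lowered wild-type GFP, culture density cut under 30%, mutant RFP and density less affected; inactive = any of these conditions unmet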; note: one replicate is shown; some compounds called inactive have numbers as strong as hits
HNF4A DNA FP: change in binding of human HNF4 alpha to DNA; activity change, % at 10 µM; HNF4a-FITC DNA binding, fluorescence polarization, 1 h; 0.3% of 360,000 active; AID 1224865; P41235; in the data active = activity change above about 30%, passing the limit was not always enough;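 note: controls were the assay level and a saturating level of protein; the project sought stronger binding though the title names inhibitors; some compounds called inactive have numbers as strong as hits; positive values seem to mean higher polarization but the record does not say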
Target sequence (P41235 whole entry, looked up): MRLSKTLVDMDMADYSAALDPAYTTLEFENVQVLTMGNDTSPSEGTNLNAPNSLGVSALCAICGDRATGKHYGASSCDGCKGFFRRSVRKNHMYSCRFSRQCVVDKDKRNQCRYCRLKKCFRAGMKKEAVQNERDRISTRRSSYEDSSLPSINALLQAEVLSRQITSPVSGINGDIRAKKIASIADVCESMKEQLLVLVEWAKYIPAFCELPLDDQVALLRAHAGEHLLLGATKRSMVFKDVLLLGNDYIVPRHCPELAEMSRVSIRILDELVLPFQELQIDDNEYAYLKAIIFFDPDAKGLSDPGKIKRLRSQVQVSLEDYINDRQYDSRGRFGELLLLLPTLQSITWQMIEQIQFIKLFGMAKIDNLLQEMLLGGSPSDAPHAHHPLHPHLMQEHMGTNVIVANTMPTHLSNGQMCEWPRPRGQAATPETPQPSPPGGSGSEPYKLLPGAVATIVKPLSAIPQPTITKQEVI
Ecoli rRNA inh OD600: recorded beside Ecoli rRNA inh, whose call it bears; OD600 change, %; measured here: OD600 growth;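 optical density of the mix in the first replicate; 0 = DMSO median and -100 = no signal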
Ecoli rRNA inh RFP: recorded beside Ecoli rRNA inh, whose call it bears; RFP signal change, %; measured here: RFP humanized mutant strains;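 first replicate; 0 = DMSO median and -100 = no signal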
* = called active by the depositor; i = inactive; ? = inconclusive; . = no result given. Not all compounds are listed, so the mix of outcomes need not match the whole.

cpd	structure	Ecoli growth	AF4-AF9 inh	ALR H2O2 inh	Vif A3G	FGF22 binding	Ecoli rRNA inh	Ecoli rRNA inh OD600	Ecoli rRNA inh RFP	HNF4A DNA FP
1	O=C(O)c1ccc(S(=O)(=O)Nc2ccc(O)c(Sc3nc4ccccc4s3)c2)cc1	0.76	-2.5	100*	11%	.	-23*	-15*	0.5*	-2.6
2	CCCCc1nc(SCc2ccc([N+](=O)[O-])cc2)n[nH]1	0.67	7.9	.	-10%	i	-3	-15	-3.9	-2.5
3	C[C@H]1NC(=O)[C@@]2(C)[C@H](c3ccccc3)[C@H]3COc4ccccc4[C@@H]3N2C1=O	.	-30	-3	.	i	-2	-7	1.5	0.3
4	Cn1c(N)c(C(=O)CSc2n[nH]c(N)n2)c(=O)n(C)c1=O	0.71	-14	.	-3%	i	-1	-7	-1.5	1.6
5	Cc1c(Cl)cccc1NC(=O)CNC(=O)Cc1c[nH]c2ccccc12	0.67	0.8	-1	20%	i	0	-5	3.5	0.5
6	CC(C)(O)CNC(=O)C(Cc1ccccc1)N1C(=O)c2ccccc2C1=O (stereo not drawn)	0.67	-0.5	-10	0%	i	-1	3	-0.2	-2.9
7	CC(C)C(=O)Nc1cc(=O)[nH]c2ncnn12	0.65	.	.	0%	.	.	.	.	6.9
8	COc1ccc(S(=O)(=O)Nc2ccc3c(c2)CC(=O)N([C@H](C)CO)C[C@@H](C)[C@@H](CN(C)S(=O)(=O)c2ccc(Cl)cc2)O3)cc1	.	1.7	.	.	i	-6	-5	0.5	.
9	CCN1C(=O)/C(=C2/Sc3ccccc3N2CC)SC1=S	0.74	-6.4	-5	.	i	7	4	-2.7	3.9
10	COC(=O)C1CCN(C(=O)c2cc(-c3ccco3)nc3ccccc23)CC1	.	1.1	2	.	i	.	.	.	-35
11	CCCCN(C)C(=O)c1nc2ccccn2c1CNCCCn1ncc2ccccc21	0.68	16	.	9%	i	1	-4	-0.2	1.1
12	CO[C@@H]1CN(C)C(=O)c2ccc(NS(C)(=O)=O)cc2OC[C@H](C)N(CC2CCCCC2)C[C@@H]1C	.	2.5	.	.	i	4	7	0.5	.
13	Cc1ccc(N(CCC(=O)O)S(=O)(=O)c2ccccc2)cc1	0.62	.	2	11%	.	.	.	.	-0.3
14	Cc1ccc2nc(-c3cccc(N)c3)[nH]c2c1	0.7	.	99*	7%	.	.	.	.	-3.0
15	COc1ccccc1-c1cnc2c(c1)C(=O)N([C@H](C)CO)C[C@@H](C)[C@H](CN(C)C(=O)CC1CC1)O2	.	-4.5	.	.	i	0	8	0.5	.
16	Cc1ccc2nc(N(CCCN(C)C)C(=O)c3sc4ccccc4c3Cl)sc2c1	0.63	.	-5	.	.	.	.	.	4.5
17	Cc1csc(Nc2nc(N)c(C(=O)Nc3cc(Cl)ccc3F)o2)n1	0.65	-1.1	2	-1%	i	-1	7	0.2	0.3
18	COc1cccc(/C=N/NC(=O)C(=O)N2CCCCCC2)c1O	.	-1.4	37	.	i	-26	-3	-5.0	2.1
19	CC(=O)NC(c1cccc(F)c1)c1nc(-c2cnc3ccccc3c2)cs1 (stereo not drawn)	.	0.4	.	.	i	3	14	3.3	1.4
20	Cc1ccc(SCCN2CCC(NC(=O)OCc3ccccc3)CCC2=O)cc1 (stereo not drawn)	0.79	0.1	-5	.	i	-18	-32	22	1.6
21	Cn1c(SCC(=O)O)nnc1-c1cccc(NC(=O)c2cccc3ccccc23)c1	0.68	-28	-12	-4%	i	4	0	-4.0	1.7
22	Clc1cccc(CSc2nccn2-c2ccccc2)c1	0.7	.	-7	3%	.	.	.	.	2.1
23	O=C(CN1CCN(C(=O)c2cccc(S(=O)(=O)N3CCCC3)c2)CC1)Nc1cccc(F)c1	0.67	1.1	.	-6%	i	6	5	-0.4	-1.9
24	Cc1ccc(S(=O)(=O)N2CCN(C(=O)C3CCCCC3)CC2)cc1	0.72	-0.3	-10	-6%	i	2	0	2.6	-0.5
25	O=C1NC2(CCCCCC2)C(=O)N1Cc1ccc(F)cc1Cl	0.7	-0.6	.	.	i	5	-27	-4.2	-65
26	CCC(C)(C(=O)NC1CCCC1)N(Cc1cccs1)C(=O)c1ccccn1 (stereo not drawn)	0.73	-7.4	.	3%	i	1	-2	-1.0	-2.9
27	Cc1ccc(/C=C2\Oc3c(ccc(O)c3CN3CCN(C)CC3)C2=O)cc1	0.67	.	6	.	.	.	.	.	3.2
28	C[C@]12CCC[C@H](O1)c1c(cc3c(c1O)C(=O)c1c(O)cc(O)cc1C3=O)O2	0.68	.	16	.	.	.	.	.	69
29	CCC(=O)NCCc1nc2cc(NC(=O)Nc3ccccc3)ccc2n1C	0.68	-6.1	1	-6%	i	0	16	-0.3	2.3
30	CCCCn1c(SCC(=O)Nc2cc(C)on2)nnc1-c1ccco1	0.7	.	0	11%	.	.	.	.	1.2
31	CO[C@@H](CN(C)C(=O)c1cc(Cl)cc(Cl)c1)[C@@H](C)CN(C(=O)Nc1ccc(F)cc1)[C@@H](C)CO	.	0.0	.	.	i	-10	-24	3.0	.
32	CC(=O)N1C(=O)C2(C(C#N)=C(N)Oc3cc(C)oc(=O)c32)c2ccccc21 (stereo not drawn)	0.69	.	.	7%	.	.	.	.	0.9
33	CCCCCNC(=O)C(c1ccncc1)n1c(=O)c(-c2ccccc2)nc2ccccc21 (stereo not drawn)	.	6.0	.	.	i	6	0	4.1	1.0
34	O=C1CCC[C@@H]2Cc3nc4ccccc4cc3[C@@H]3CCN1[C@H]23	.	-14	.	.	i	10	16	3.2	-0.4
35	CCOC(=O)N1CCN(Cc2nc3c(c(=O)n(C)c(=O)n3C)n2CCC(C)C)CC1	0.74	-4.7	-2	?	i	2	-9	-9.6	-2.6
36	COc1ccc(NCc2ccccc2[N+](=O)[O-])cc1OC	0.73	.	.	?	.	.	.	.	1.1
37	COC(=O)C1(S(=O)(=O)C2(C(=O)OC)CCCC2)CCCC1	0.64	.	1	1%	.	.	.	.	6.3
38	Cc1oc(S(=O)(=O)N(C)C)cc1C(=O)Nc1ccc(F)cc1	0.62	.	1	-9%	i	1	11	-0.8	0.4
39	COc1ccc(NC(=O)Nc2ccc3c(c2)C(=O)N([C@H](C)CO)C[C@@H](C)[C@H](CN(C)C(=O)CCCN(C)C)OCCCC[C@@H](C)O3)cc1	.	12	.	.	i	0	8	0.9	.
40	C=CCN(CC=C)C(=S)NC(=O)/C=C/c1ccccc1	0.64	.	.	-1%	.	.	.	.	4.6
41	COc1cc(OC)cc(C(=O)Nc2sc3c(c2C(N)=O)CCC3)c1	0.68	-13	.	.	i	-6	-6	8.5	3.1
42	Cc1ccc(C(=O)N/C(=C\c2cn(S(=O)(=O)N(C)C)c3ccccc23)C(=O)NCCCN2CCOCC2)cc1	0.67	8.1	-3	3%	i	-12	-11	2.5	3.3
43	Cc1cc(S(=O)(=O)Nc2cccnc2)c(C)s1	0.72	.	-3	13%	.	.	.	.	1.3
44	COc1ccc(CCNC(=O)C2CC(c3ccccc3F)=NO2)cc1 (stereo not drawn)	0.64	.	-11	9%	.	.	.	.	-3.4
45	Cc1ccc(-n2c(C)nc3c(cnn3-c3ccccc3Cl)c2=O)cc1C	0.67	.	14	16%	.	.	.	.	-1.0
46	NS(=O)(=O)c1ccc(CCNc2cc(=O)n(Cc3ccc(F)cc3)c(=O)[nH]2)cc1	0.73	.	26	14%	.	.	.	.	3.7
47	CC(C)[C@H](NS(=O)(=O)c1ccc2c(c1)OCCO2)C(=O)OCC(=O)Nc1cccc(Cl)c1Cl	0.67	.	-10	.	.	.	.	.	0.7
48	CC(=O)N(C)C[C@@H]1Oc2cc(C#Cc3cccc(F)c3)ccc2S(=O)(=O)N([C@@H](C)CO)C[C@H]1C	.	-1.1	.	.	i	-19	-42	4.4	.
49	CCOC(=O)c1cccc(-n2c(C)cc(C=O)c2C)c1	0.66	.	7	12%	.	.	.	.	1.0
50	CC1CCCCN1C(=O)C(=O)c1cn(CC(=O)N2CCCCCC2)c2ccccc12 (stereo not drawn)	0.71	2.3	-9	.	i	18	8	5.5	0.1

Going on with the list.
cpd	structure	Ecoli growth	AF4-AF9 inh	ALR H2O2 inh	Vif A3G	FGF22 binding	Ecoli rRNA inh	Ecoli rRNA inh OD600	Ecoli rRNA inh RFP	HNF4A DNA FP
51	CCC(NC(=O)NCc1ccccc1)(C(F)(F)F)C(F)(F)F	0.65	2.5	0	.	i	3	6	5.2	2.3
52	CCN1CCc2c(OCC(=O)N3CCC(C)CC3)cccc2C1=O	0.71	1.0	-6	2%	i	0	-1	-0.8	-0.1
53	Cc1nn(-c2ccc(Cl)cn2)c2c1C(=O)CC(C)(C)C2Br (stereo not drawn)	0.66	6.8	.	0%	i	.	.	.	-5.1
54	NCCCC[C@H]1CNC(=O)C(=O)N1CC1CCCCC1	.	0.8	-4	?	i	16	17	-6.9	1.6
55	Clc1ccc2c(c1)C1=C(C(c3ccncc3)O2)C(c2ccc(Br)cc2)n2ncnc2N1 (stereo not drawn)	0.78	.	-4	-2%	.	.	.	.	3.1
56	CCOC(=O)CCc1c(C)nc(-n2[nH]c(C)c(CCO)c2=O)[nH]c1=O	0.68	-2.0	2	.	i	9	14	2.6	-3.8
57	CN(C)c1ccc(C(=O)OCC(=O)Nc2cccc(S(=O)(=O)N3CCCC3)c2)cc1	0.73	1.2	-3	.	i	.	.	.	-1.9
58	CC(=O)NC1C(=O)N(CC(C)C)c2ccccc21 (stereo not drawn)	0.75	.	19	4%	.	.	.	.	-4.0
59	C[C@H](CO)N1C[C@H](C)[C@@H](CN(C)C(=O)NC2CCCCC2)Oc2ncc(C#CCN(C)C)cc2C1=O	.	-8.9	.	.	i	-4	0	0.7	.
60	O=C(C[C@@H]1CC[C@H]2[C@@H](COC[C@@H](O)CN2Cc2nccs2)O1)NCc1ccc(F)cc1	.	-3.5	.	.	i	2	8	-5.1	.
61	Cc1cccc(C)c1NC(=S)NCCc1ccccn1	0.72	.	11	-10%	.	.	.	.	1.5
62	Nc1nnc(SCC(=O)NC2CCCc3ccccc32)s1 (stereo not drawn)	0.72	-11	-3	3%	i	14	0	-0.2	0.3

Retrieved by compound from the entries so far:
cpd	structure	Ecoli growth	AF4-AF9 inh	ALR H2O2 inh	Vif A3G	FGF22 binding	Ecoli rRNA inh	Ecoli rRNA inh OD600	Ecoli rRNA inh RFP	HNF4A DNA FP
56	CCOC(=O)CCc1c(C)nc(-n2[nH]c(C)c(CCO)c2=O)[nH]c1=O	0.68	-2.0	2	.	i	9	14	2.6	-3.8
62	Nc1nnc(SCC(=O)NC2CCCc3ccccc32)s1 (stereo not drawn)	0.72	-11	-3	3%	i	14	0	-0.2	0.3
